HSD17B inh: blocks hydroxysteroid 17-beta dehydrogenase activity. Potency, µM (series often up to 57.1 µM), without a hit: top-dose activity change, negative = inhibition, most hits filed as inhibitors. Q99714. 75,000 tested, 7.6% active. recombinant HSD17B10, NADH fluorescence kinetic; many of its hits are not listed in these tables; active means well fitted inhibition curve with a large enough effect; inconclusive means small, poorly fitted or top-dose-only effect; inactive means no such curve, though single readings can be large or run the other way;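 further: the protocol describes HADH2 (HSD17B10) and not the HSD17B4 of the title; nearly all actives have a fitted effect of over 70% in size; most hits overshoot -100% by far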
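His-tagged E. coli-expressed HADH2 at 20 nM in 100 mM Tris-HCl pH 9.0 with 0.01 % Tween-20, preincubated 15 min with compound at room temperature. Reaction with 1 mM NAD+ and 90 uM beta-hydroxybutyryl coenzyme A; NADH fluorescence (360/450 nm) read kinetically over 4 min, last minus first point.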
Numbers without * were called inactive; ? = inconclusive; [ ] = another dose, or the depositor's remark. On the % scale 0 is the no-effect control and ±100 the full control effect; potency means the concentration at half of the fitted maximal effect. The list is partial. The share of hits here may be higher or lower than overall.

SMILES | HSD17B inh
Cc1cc(C)cc(N(C(=O)C2CCCC2)C2C=CS(=O)(=O)C2)c1 (stereo not drawn) | -5%
COc1ccccc1CNc1cc(-c2ccccc2OC)ncn1 | 25µM*
CCc1cccc(NC(=O)Cn2cccc2)c1 | 5%
CCOC(=O)Cn1c(=O)oc2cc(S(=O)(=O)N3CCN(c4ccccn4)CC3)ccc21 | 0%
Cn1c(SCc2cccc3ccccc23)nnc1-c1ccco1 | -9%
CSc1nnc(-c2ccc(O)cc2)n1C | 9%
COc1ccc(F)cc1S(=O)(=O)N1CCN(Cc2ccc3c(c2)OCO3)CC1 | -23%
CC(SCCc1ccccn1)C(=O)O (stereo not drawn) | 7%
ON1C(c2ccc(Cl)cc2Cl)N(O)[C@H]2CCCC[C@H]21 (stereo partly drawn) | 5%
Cc1onc(-c2ccccc2Cl)c1C(=O)N1CCN(c2cccc(Cl)c2)CC1 | 1%
CCn1cc(C(=O)NCc2ccccc2OC)c(=O)c2ccc(C)nc21 | 6%
COc1ccc(S(=O)(=O)N2CCC(C(=O)N3CCN(c4ccccc4OC)CC3)CC2)cc1 | 9%
CC(=O)N(C)c1nc(-c2ccc(Cl)cc2)cs1 | -6%
COc1ccc2[nH]c(=O)c(CN(C(=O)C3CCCO3)c3ccc(C)cc3)cc2c1 (stereo not drawn) | ?
c1ccc(Oc2cccc(NC3=NCCC3)c2)cc1 | 5%
Fc1ccc(-c2nnc3sc(C4COc5ccccc5O4)nn23)cc1 (stereo not drawn) | -6%
Cc1cccc(-n2ncc3c(Nc4ccc(F)cc4)ncnc32)c1 | -24%
O=[N+]([O-])c1ccc(CSCc2ccc(Cl)cc2)cc1 | 5%[11.4 µM]
Cc1cc(-c2nc3ncccc3o2)ccc1N | 16µM*
Cn1cccc1-c1cc(C(=O)O)[nH]n1 | -7%

4 of these compounds, reformatted.
SMILES,HSD17B inh
CC(SCCc1ccccn1)C(=O)O (stereo not drawn),7%
ON1C(c2ccc(Cl)cc2Cl)N(O)[C@H]2CCCC[C@H]21 (stereo partly drawn),5%
Cc1onc(-c2ccccc2Cl)c1C(=O)N1CCN(c2cccc(Cl)c2)CC1,1%
CCn1cc(C(=O)NCc2ccccc2OC)c(=O)c2ccc(C)nc21,6%

Returning to the listing; the three compounds before the break are reprinted first.
SMILES | HSD17B inh
O=[N+]([O-])c1ccc(CSCc2ccc(Cl)cc2)cc1 | 5%[11.4 µM]
Cc1cc(-c2nc3ncccc3o2)ccc1N | 16µM*
Cn1cccc1-c1cc(C(=O)O)[nH]n1 | -7%
COc1ccc2c(c1)cc(C(=O)O)n2C | 32µM*
O=C(CN1CCN(c2ccc(F)cc2)CC1)OCc1ccccc1 | -5%
Cc1cccc(NC(=O)C2CCCN2C(=O)OCC(C)C)c1C (stereo not drawn) | -5%
CCN(CC)S(=O)(=O)c1ccc(Cl)c(C(=O)Nc2nnc(C)s2)c1 | 3%
CCn1cnc2sc(C(=O)O)c(C)c2c1=O | -1%
COc1ccccc1-c1nccc(NCc2cnc(C)cn2)n1 | ?
COc1cc(C)nc(N2CCCC(C(=O)Nc3cccc(Cl)c3Cl)C2)n1 (stereo not drawn) | 0%
O=C(Nc1ccccc1)N(CCc1nc2ccccc2[nH]1)C1CCCC1 | 3%
Clc1ccccc1-c1nccc(NCc2cccs2)n1 | -14%
Cc1cccc(NC(=O)C2CCN(S(=O)(=O)c3cccc4nsnc34)CC2)n1 | 2%
O=C(CN1CCN(CC(=O)Nc2ccccc2Cl)CC1)Nc1ccc2c(c1)OCCO2 | -3%
O=C(c1cccc(F)c1)N1CCC[C@@]2(CCN(c3cccc(-c4ccccc4)c3)C2)C1 | -14%
COc1ccc(-n2c(=O)c3c4c(sc3n3c(C)nnc23)CCCC4)cc1 | 2%
Cc1cc(C)c(NC(=O)CN2C(=O)NC3(CCCCC3)C2=O)c(C)c1 | -3%
O=C(COc1ccc(Cl)cc1Cl)Nc1nc2n(n1)C(c1ccccc1)CC(=O)N2 (stereo not drawn) | -4%
COCCCNC(=O)c1ccc(C(=O)NCCCOC)cc1 | 1%
CCOc1ccc(-n2c(SCC(=O)NC(C)CC)nc3n[nH]c(C)c3c2=N)cc1 (stereo not drawn) | 32µM*
CC[C@H](/C=C/[C@@H](C)[C@H]1CC[C@H]2C3CC=C4C[C@@H](O)CC[C@]4(C)C3CC[C@]12C)C(C)C (stereo partly drawn) | 0%
CC(=O)c1c(C)n([O-])c2cc(C)ccc2[n+]1=O | -7%
CCOCCn1c(CN2CCC(C)CC2)nc2c1c(=O)n(C)c(=O)n2C | 13µM*

Looked up above.
`Cc1cccc(NC(=O)C2CCN(S(=O)(=O)c3cccc4nsnc34)CC2)n1` @ HSD17B inh = 2%
`CC[C@H](/C=C/[C@@H](C)[C@H]1CC[C@H]2C3CC=C4C[C@@H](O)CC[C@]4(C)C3CC[C@]12C)C(C)C` (stereo partly drawn) @ HSD17B inh = 0%
`CCOc1ccc(-n2c(SCC(=O)NC(C)CC)nc3n[nH]c(C)c3c2=N)cc1` (stereo not drawn) @ HSD17B inh = 32µM*
`O=C(Nc1ccccc1)N(CCc1nc2ccccc2[nH]1)C1CCCC1` @ HSD17B inh = 3%
`COc1ccc(-n2c(=O)c3c4c(sc3n3c(C)nnc23)CCCC4)cc1` @ HSD17B inh = 2%
`CCOCCn1c(CN2CCC(C)CC2)nc2c1c(=O)n(C)c(=O)n2C` @ HSD17B inh = 13µM*

(cont.)
SMILES | HSD17B inh
C[C@@H](N)[C@@H](C)Cc1ccccc1 | 5%[11.4 µM]
C#CCOC(=O)CCC(=O)Nc1cc(OC)nc(OC)n1 | -11%
O=C(c1ccco1)N1CCN(C2=NS(=O)(=O)c3ccccc32)CC1 | -1%
CC(C)COCC1CC2(CC(C)(c3csc(N)n3)OC2=O)C(=O)O1 (stereo not drawn) | -6%
CS(=O)(=O)N(Cc1ccc(C(=O)NCc2ccco2)cc1)c1ccccc1 | 5%
COC(=O)C1(Cc2ccccc2)C=C2C(=C(c3ccccc3)C(=O)C2C)CN1 (stereo not drawn) | ?
CCOC(=O)C1CCN(S(=O)(=O)c2cccc(-c3cn4cccnc4n3)c2)CC1 | 25µM*
Cc1ccc(S(=O)(=O)c2nc(NCCCn3ccnc3)sc2Cl)cc1 | 2%
CCCc1nnc(NC(=O)CCC(=O)O)s1 | 8%
COC(=O)Cc1cc(=O)n2[nH]c(C)nc2n1 | 13%
COc1ccccc1-c1cc(C(=O)NCc2ccco2)no1 | ?
CC1(C)CC(=O)C(C=NCCCN2CCCC2=O)=C(O)C1 | 0%
COc1ccc(NC(=O)CCC2COc3ccccc3O2)c(OC)c1 (stereo not drawn) | 9%
COc1ccc(NC(=O)Nc2cc(C)ccc2OC(F)F)c(OC)c1 | -13%
CCOC(=O)N1CCN(C(=O)c2cccc(-n3c(=S)[nH]c4cc(Cl)ccc4c3=O)c2)CC1 | 0%
CCCC(C(=O)NC1CCCC1)N(Cc1cccs1)C(=O)c1snc(C(N)=O)c1N (stereo not drawn) | 25µM*
COc1ccc(Cn2c(=O)sc3ccccc32)cc1 | 1%
COc1ccccc1C(=O)n1nc(-c2ccccc2)nc1NCc1ccco1 | 30%
CCOc1ccc2nc(SCC(=O)N3CCCCCC3)c(C#N)cc2c1 | 16µM*
O=C(c1ccccc1C(=O)N1CCN(c2ccccc2F)CC1)N1CCN(c2ccccc2F)CC1 | 6%
COc1ccc(C2C(C(=O)N3CCN(c4ccccn4)CC3)CC(=O)N2c2ccc(OC)cc2)cc1 (stereo not drawn) | ?
CC(=O)Nc1ccc(S(=O)(=O)N2CCC(c3nc4ccc(C)cc4[nH]3)CC2)cc1 | 10%
O=C1C2C3C=CC(CO)(O3)C2C(=O)N1c1ccccc1-c1ccccc1 (stereo not drawn) | 10µM*
S=C(c1ccc2c(c1)OCO2)N1CCCC1 | 2%
CN(C(=O)CN1C(=O)c2ccccc2S1(=O)=O)c1ccccc1C(=O)O | 15%
N#CCCn1cc(/C=N/O)c(-c2ccc(-c3ccccc3)cc2)n1 | -4%
CCn1c(SCC(=O)Nc2ccc(Cl)cc2)nnc1C1CC1 | 3%
O=C(NC(NC1CCS(=O)(=O)C1)C(=O)c1ccccc1)c1ccc(Cl)cc1 (stereo not drawn) | 1%
COc1cccc(NC(=O)Cc2ccccc2)c1 | 9%
CCN(C(=O)c1ccco1)c1nc(CC(=O)Nc2ccc(Cl)cc2)cs1 | 0%
COc1ccc2c(Cl)c(C(=O)NCCCn3ccnc3)sc2c1 | 5%
CCn1c2ccccc2c2cc(N)ccc21 | ?
COc1cccc(C2NC(=O)c3ccccc3O2)c1OC (stereo not drawn) | -23%
S=C(c1ccc(-c2ccc(Cl)c(Cl)c2)o1)N1CCOCC1 | -29%
COCCn1nnnc1C(C(C)C)N(Cc1cccnc1)Cc1ccccc1Cl (stereo not drawn) | -3%
CCn1c(SCC(=O)Nc2nc(-c3ccccc3)cs2)nnc1-c1ccccc1O | 1%
COc1ccc(S(=O)(=O)N2CCC(C(=O)Nc3cccc(Cl)c3)CC2)cc1OC | 7%
COc1cccc(NC(=O)c2cccs2)c1 | -1%
CCCS(=O)(=O)N1CCC(C(=O)NCCCN(C)Cc2ccccc2)CC1 | 10%
COc1ccc(CCNC(=O)CCN2C(=O)C(C)Oc3ccc(C)cc32)cc1OC (stereo not drawn) | 10%

Reprinted from the listing, 2 compounds:
SMILES | HSD17B inh
CCCS(=O)(=O)N1CCC(C(=O)NCCCN(C)Cc2ccccc2)CC1 | 10%
COc1ccc(CCNC(=O)CCN2C(=O)C(C)Oc3ccc(C)cc32)cc1OC (stereo not drawn) | 10%

The listing continues.
SMILES | HSD17B inh
COC(=O)C1C(=O)C2=C(CC1C)NC(C)=C(C(=O)OC(C)C)C2c1ccc(OC)c(O)c1 (stereo not drawn) | 2%
Cc1nc2cnc(N3CCN(C)CC3)nc2n(-c2ccccc2)c1=O | 25µM*
CCN(CC)c1nc(SCC(=O)O)nc(N(CC)CC)n1 | 9%
CO[C@@H]1/C=C\CC(=O)N[C@@H](C)C(=O)OC[C@@H](OC)[C@H](C)CCCC(=O)OC[C@H]1C | 0%[11.4 µM]
Fc1cccc(CSc2nc3ccncc3[nH]2)c1 | 3%
CCCOc1ccc(C(CC(=O)O)NC(=O)c2ccc3c(c2)OCO3)cc1 (stereo not drawn) | -9%
CCCCn1c(SCc2ncc(-c3ccccc3)o2)nc2cc(S(N)(=O)=O)ccc21 | -11%
Cc1ccc(C)c(OCC(O)CN2CCCCC2C)c1 (stereo not drawn) | -1%
COCCNC(=O)c1cc(-c2cccs2)on1 | 4%
CCOC(=O)/C=C(\C)Nc1cc(C)nn1-c1ccccc1 | 7%
COc1cccc(-c2cc(C(F)(F)F)nc(N3CCCCC3)n2)c1 | 32µM*
CC(C)Cn1c(N)c(C(=O)COC(=O)c2ccc3c(c2)OCCO3)c(=O)n(C)c1=O | 5%
CC(=O)c1c(C)n(CC(=O)NCc2ccc3c(c2)OCO3)c2ccccc12 | 3%
O=c1c2cnn(-c3ccccc3Cl)c2ncn1Cc1cccnc1 | 1%
CCOC1=NC(C(=O)O)c2ccccc2/C(=C(/C)Cl)N1 (stereo not drawn) | 11%
C=CCN1C(=O)C2C(C(=O)NC)C3C=CC2(O3)C1C(=O)NCc1ccc(OC)cc1 (stereo not drawn) | 5%
O=C(CC1(O)CCCCC1)OC1CCCC1 | 6%[11.4 µM]
O=C(CC1Sc2ccccc2NC1=O)Nc1cccc(-c2nnc3n2CCCCC3)c1 (stereo not drawn) | -20%
O=C(CNS(=O)(=O)c1ccccc1)NCc1ccccn1 | 3%
CCc1ccc2c(CN3CCN(S(=O)(=O)c4ccc5c(c4)OCCO5)CC3)cc(=O)oc2c1 | 5%
Cc1ccc(NC2CC(=O)N(c3ccc(N4CCCCC4)cc3)C2=O)cc1 (stereo not drawn) | -5%
O=C(Nc1cccc(-n2cnnn2)c1)c1ccco1 | -3%
CCc1ccccc1S(=O)(=O)Cc1ccc(C(=O)N2CCN(c3ccccn3)CC2)o1 | 0%
O=C(CN1C(=O)c2ccccc2S1(=O)=O)NCCC1=CCCCC1 | 9%
COc1ccc(CCNc2nnc(Sc3nnnn3-c3ccccc3)s2)cc1OC | 2%
COc1ccccc1NC(=O)Cn1c(CN2CCCCC2)nc2ccccc2c1=O | 1%
COc1ccccc1NC(=O)N1CCCC1C(=O)NCc1ccc(F)cc1 (stereo not drawn) | 5%
Cc1ccc(N2CC(C(=O)OCc3ccccc3F)CC2=O)cc1 (stereo not drawn) | -7%
COc1ccc(-c2cc(C(F)(F)F)nc(N3CCCCCC3)n2)cc1 | 32µM*
CCN(CC)C(=O)c1cn(CC)c(=O)c2cc(OC)c(OC)cc12 | -4%
O=C(Nc1cccnc1)c1ccccc1F | 4%
c1ccc(-c2nnc(SCc3cn4ccsc4n3)o2)cc1 | 4%
Cn1c(=O)c2c(nc(CN3CCc4ccccc4C3)n2Cc2cccc(Cl)c2)n(C)c1=O | 9%
COCCn1c(=O)c(CCc2ccccc2)nc2cnc(Oc3ccc(OC)cc3)nc21 | 3%
C=CCn1c(SCC(=O)NC(=O)NCc2ccco2)nc2sc(C)c(C)c2c1=O | -2%
Cc1ccc(-c2noc(CCC(=O)N3CCCC3)n2)cc1 | 1%
CC1CCCN(C(=O)C2c3ccccc3C(=O)N3CCc4ccccc4C23)C1 (stereo not drawn) | 2%
CC(=O)c1ccc(OCC(=O)NC2CCS(=O)(=O)C2)cc1 (stereo not drawn) | 10%
CC(C)(C)c1ccc(-c2nnc(SCC(=O)O)n2N)cc1 | 1%
CC(C)Oc1ccc(C(CC(=O)O)NC(=O)CSc2ncn[nH]2)cc1 (stereo not drawn) | 2%
CCN1CCN(c2cc(C)c3cc(NC(=O)c4ccc5c(c4)OCO5)ccc3n2)CC1 | 100%[activator]
CCCCCOC(=O)NCCOC(=O)Nc1ccc(C(=O)OCC)cc1 | 3%
CCOCc1nnc(NC(=O)c2ccco2)s1 | 0%
